VDR inhibitor: Inhibitors of the vitamin D receptor (VDR): qHTS | Vitamin D3 receptor (Homo sapiens), P11473 | VDR-SRC2-3 peptide fluorescence polarization, 2 h | Potency, µM, for inactives: max response, negative = inhibition, actives largely listed as inhibitors | hit rate 0.93% among 400,000; active = well fitted inhibition curve with a large enough effect; inconclusive = small, poorly fitted or top-dose-only effect, or another doubt; inactive = no such curve, though single readings can be large or run the other way; note: series mostly up to about 120 µM
Target sequence (P11473 whole entry, looked up): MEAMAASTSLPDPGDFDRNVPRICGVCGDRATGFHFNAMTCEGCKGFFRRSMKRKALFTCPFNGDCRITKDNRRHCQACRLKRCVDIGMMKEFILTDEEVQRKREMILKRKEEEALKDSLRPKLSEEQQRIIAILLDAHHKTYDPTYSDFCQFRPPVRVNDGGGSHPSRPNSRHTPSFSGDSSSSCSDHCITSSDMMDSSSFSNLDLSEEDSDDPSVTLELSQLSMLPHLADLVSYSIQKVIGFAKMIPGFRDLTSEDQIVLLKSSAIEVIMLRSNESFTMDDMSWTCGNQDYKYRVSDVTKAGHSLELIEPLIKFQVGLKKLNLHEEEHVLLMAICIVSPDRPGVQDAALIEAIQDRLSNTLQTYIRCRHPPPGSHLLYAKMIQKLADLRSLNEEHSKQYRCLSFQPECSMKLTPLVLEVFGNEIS
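VDR–SRC2-3 interaction, FP format. Cmpds 23 nl via pintool, brief spin, 2 h ambient incubation.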
Starred values were filed as active, the others as inactive; ? = inconclusive; & = joins results of further samples. % is set by controls: 0 for no effect and ±100 for the full control effect; potency is the fitted concentration of half-maximal effect.

molecule	VDR inhibitor
CSC(=NS(=O)(=O)c1ccc(N)cc1)NS(=O)(=O)c1cccs1	6%
COc1ccc(N/C=C\C(=O)c2ccc3c(c2)OCO3)cc1OC	-8%
CCN(c1cc(C)cc(C)c1)S(=O)(=O)c1nnc(NC(=O)c2ccco2)s1	-12%&7%
O=[N+]([O-])c1ccc(Cl)c(CN2CCCCCC2)c1	1%
Clc1cccc(Cl)c1CNc1ccc(N2CCCC2)cc1	?
COc1ccc(/C=N/N=C2/NC(=O)C(CC(=O)O)S2)cc1OCc1ccc(Cl)cc1Cl (centres undefined)	-23%
O=C(O)C1CCCCC1C(=O)NCc1ccc2c(c1)OCO2 (centres undefined)	7%
Cc1ccc(NC(=O)CCS(=O)(=O)c2cccc3nonc23)cc1Cl	-6%&2%
Clc1ccc(C=Cc2ccccn2)c(Cl)c1	9%
CC(C)NC(=O)NNC(=O)c1cc(COc2cc(Cl)cc(Cl)c2)on1	-20%
COc1ccc(-n2c(SCC(=O)c3ccc(Cl)cc3)nc3c([nH]c4ccccc43)c2=O)cc1	9%
CN(C)CCN1C(=O)C(=O)/C(=C(/O)c2ccc(S(=O)(=O)N3CCOCC3)cc2)C1c1ccc(Br)cc1 (centres undefined)	-24%
CCOCCCNC(=O)CSc1nc2nc(C)c(Cc3ccccc3)c(C)n2n1	11%
COC(=O)c1cc(COc2ccc3ccc(=O)oc3c2)c(C)o1	10%
Cc1oc(/N=C/c2ccc(O)cc2O)c(C#N)c1C	-7%

Two compounds drawn at random from the list so far, as already listed:
molecule	VDR inhibitor
CSC(=NS(=O)(=O)c1ccc(N)cc1)NS(=O)(=O)c1cccs1	6%
Clc1cccc(Cl)c1CNc1ccc(N2CCCC2)cc1	?

Later entries.
molecule	VDR inhibitor
C/C=C(/C)C(=O)O[C@@H]([C@H](O)c1cc2ccc(=O)oc2cc1OC)C(C)(C)O[C@@H]1O[C@H](CO)[C@@H](O)[C@H](O)[C@H]1O	-14%
Cc1nnc2ccc(N3CCN(c4ccccn4)CC3)nn12	-15%
COc1ccc(CC(NC(C)=O)C(=O)NC2CCN(C(=O)C3CC3)CC2)cc1OC (centres undefined)	-1%
Cc1ccccc1NS(=O)(=O)c1cc(C(=O)N2CCCC2)ccc1C	-2%
COc1ccc(/C=C/C(=O)NCc2nc3ccccc3[nH]2)cc1OC	10%
O=C(NCc1ccco1)c1ccc(Oc2ccccc2)cc1	4%
COc1ccc(C(=O)CN2C(=O)NC3(CCCc4ccccc43)C2=O)cc1OC (centres undefined)	9%
NC(=S)N=Nc1c(O)n(CC(=O)Nc2ccccc2)c2ccccc12	10%
COc1ccc(/C(O)=C2/C(=O)C(=O)N(CCCN(C)C)C2c2ccc(Cl)cc2)cc1OC (centres undefined)	8%
Cc1nnc(C)n1/N=C/c1cccc(Oc2ccccc2)c1	-1%
CCOC(=O)CN1C(=O)S/C(=C/c2cc(C)n(-c3ccccn3)c2C)C1=O	0%
O=C(NC(=S)Nc1cccc2cccnc12)c1ccccc1	0%
CN(C(=O)CO/N=C/c1ccc(OC(F)F)cc1)C1CCS(=O)(=O)C1 (centres undefined)	17%
COc1ccc(C(=O)Nc2nc3ccccc3c(=O)[nH]2)cc1	7%
Cc1ccc(CCC(=O)Nc2ccc([N+](=O)[O-])cc2Cl)o1	-3%

Remaining list, next part:
molecule	VDR inhibitor
CCOC(=O)C1=CC[C@@H](c2cc3cc(OC)ccc3n2C)N(S(=O)(=O)c2ccc(C)cc2)[C@H]1C(=O)OCC	5%
Cc1cc(C)nc(CCNC(=O)c2cc(COc3ccc(F)cc3F)on2)n1	-8%
Cc1ccc(N2CCN(C(=O)c3cccs3)CC2)c(C)c1	8%
Cc1ccc(NC(=O)COc2ccc(S(=O)(=O)N3CCOCC3)cc2)cc1	10%
Cc1ccc(-c2nnc3ccc(SCC(N)=O)nn23)cc1	-9%
CCOC(=O)C1=C(COC(=O)COc2ccc(OCC)cc2)NC(=O)NC1C (centres undefined)	0%
CN1CCN(C(=O)CCCOc2ccc(Cl)cc2Cl)CC1	13%
COC(=O)c1sc(SC)c2c1CC(C)(C)C/C2=N/O	19%
CC1(C)CC(=O)C=C(NCCO)C1	-1%
CCN(CC)C(=O)c1ccc2nc(-c3ccccc3)c(-c3ccccc3)nc2c1	5%
COC(=O)c1sccc1NC(=O)CSc1ccccc1NC(=O)CNC(C)C	-11%
CCOC(=O)CCC(=O)OCC(=O)NC(C)C1CC2CCC1C2 (centres undefined)	-14%
CCc1cccc(C)c1NC(=S)N1CCCC1C(=O)O (centres undefined)	-20%
O=C(Nc1nccs1)c1ccccc1Br	-2%
CC1CCN(C(=O)CSc2ccc(-c3cccnc3)nn2)CC1	-18%

More records:
molecule	VDR inhibitor
O=C(CCN1CCN(Cc2ccccc2)CC1)Nc1ccc(OCc2ccccc2)cc1	-12%
COCCNC(=O)c1c[nH]c2ccc(S(=O)(=O)Nc3ccc(F)cc3F)cc2c1=O	-7%&-7%
Cc1ccc(C)c(OCCCNCc2ccccc2)c1	14%
CCOc1ccc(-c2nc(SCC(=O)Nc3cc(F)ccc3F)n3[nH]c(=O)cc3n2)cc1	4%
N#C/C(=C\c1ccccc1)C(=O)Nc1ccccn1	-6%
Cc1cc(C(=O)COC(=O)C2=NN(c3ccccc3)C(=O)CC2)c(C)n1CC(F)(F)F	-1%
COc1cc(/C=C/C(=O)O)cc(S(=O)(=O)N2CCN(S(=O)(=O)c3ccc(Cl)cc3)CC2)c1OC	-3%
c1ccc2c(CNCCN3CCOCC3)cccc2c1	0%
Cc1cccc(NC(=O)CSc2nc(C3CCCC3)nc3c2c(=O)n(C)c(=O)n3C)c1C	-2%
O=C(NCCc1ccccc1)C(=O)N/N=C/c1ccccc1C(F)(F)F	-15%
O=C(N/N=C/c1cccnc1)c1ccccc1[N+](=O)[O-]	-18%
COc1ccc(S(=O)(=O)N2CCN(C(=O)c3cc4c(s3)CCCC4)CC2)cc1	-5%
C/C(=N/NS(=O)(=O)c1ccc(C)cc1)[C@H]1C[C@@H]1c1ccccc1	6%
CCOC(=O)c1[nH]c2ccccc2c1NC(=S)Nc1ccccc1C	-28%
Cn1c(CC(=O)Nc2ccccc2F)nnc1SCC(=O)Nc1ccccc1Br	16%

3 entries already listed, ordered by count of non-hydrogen atoms, descending.
molecule	VDR inhibitor
O=C(CCN1CCN(Cc2ccccc2)CC1)Nc1ccc(OCc2ccccc2)cc1	-12%
Cc1cc(C(=O)COC(=O)C2=NN(c3ccccc3)C(=O)CC2)c(C)n1CC(F)(F)F	-1%
COCCNC(=O)c1c[nH]c2ccc(S(=O)(=O)Nc3ccc(F)cc3F)cc2c1=O	-7%&-7%

Next section.
molecule	VDR inhibitor
O=C1CCCN2N=C(SCC(=O)Nc3ccccc3C(F)(F)F)SC2=N1	2%
O=S(=O)(c1ccccc1)N1CN(Cc2ccc(F)cc2)c2nc3ccccc3nc21	2%
COc1ccccc1NS(=O)(=O)c1cc(C(=O)NCC(c2ccco2)N(C)C)ccc1C (centres undefined)	-4%
COc1ccc(-c2nnc(SCc3nnc(-c4ccccc4)o3)n2-c2ccccc2)cc1	5%
CCOC(=O)c1c(NC(=O)Cn2cnc3sc(C)c(-c4ccccc4)c3c2=O)sc(C)c1C	-12%
CCOC(=O)CN1C(=O)C(=O)N(Cc2c(F)cccc2Cl)C1=O	-7%
Brc1ccc(-c2nnc3sc(CNC4CCCC4)cn23)cc1	-7%
CC[n+]1c(/C=C/C=C2/N(C)c3ccccc3C2(C)C)sc2ccccc21	35µM*
CCC12CN3CC(CC)(CN(C1)C3c1cc(Br)ccc1OC)C2=O (centres undefined)	3%
CC(OC(=O)c1ccc(NS(=O)(=O)c2cccs2)cc1)C(=O)N(C)C1CCCCC1 (centres undefined)	10%
COc1cc(OC)cc(-c2cc3nc(C)c(CCC(=O)NCc4ccc(Cl)cc4)c(C)n3n2)c1	-11%
CCOC(=O)C1=C(COC(=O)CNC(=O)c2ccc(C)cc2)NC(=O)NC1C (centres undefined)	19%
O=C(Nc1ccc(Br)cc1)Nc1cnccn1	-1%
CCCCNC(=O)c1cn(CC)c2cc(N3CCN(C)CC3)c(F)cc2c1=O	-10%
Nc1cc(=O)[nH]c(SCC(=O)Nc2ccccc2-c2ccccc2)n1	-5%

The list continues:
molecule	VDR inhibitor
COc1ccc(CNC(=O)C[C@H]2C(=O)N(Cc3ccc(OC)cc3)C[C@@H]2Cc2ccccc2)cc1	-6%
CC(C)On1c(SC(C)C)nc2ccccc2c1=O	-4%
OCC[C@H]1C[C@H](O)[C@@H](O)[C@@]2(Cc3ccccc3CO2)O1	-4%
CC1(C)CC(=O)C(C(c2cccnc2)C2C(=O)CC(C)(C)CC2=O)C(=O)C1	-24%
Cn1sc(NC(=O)c2ccc(Cl)cc2)nc1=O	-7%
CCC(C)NS(=O)(=O)c1ccc(F)c(C(=O)Nc2c(F)cc(F)cc2Br)c1 (centres undefined)	-17%
CCc1ccc(N(CC)C(=O)c2cn(C)c(=O)c3cc(OC)c(OC)cc23)cc1	-14%
O=C(c1ccco1)N1CCn2cccc2C1c1ccccc1 (centres undefined)	-22%
Cc1cc(C(=O)Nc2ccc(Br)cn2)sc1C	-23%
CCC1(CC)CNC(=O)NC1=O	0%
CCC(C)[C@H](N)C(=O)NC[C@H]1CC[C@H](C(=O)N[C@@H](Cc2ccccc2)C(=O)O)CC1 (some centres undefined)	-1%
Cc1ccc(-n2c(C)nnc2SCC(=O)N2CCc3ccccc3C2)cc1C	2%
COc1ccc(-c2csc(NC(=O)c3ccoc3C)n2)cc1	16%
COc1cc(SC)ccc1C(=O)N1CCCCCC1	-6%
Cc1ccc(SCCNC(=O)c2ccc(C)c([N+](=O)[O-])c2)cc1	2%

Further records follow:
mol | VDR inhibitor
CCCN(CCC)C(=O)/C=C/c1cccc([N+](=O)[O-])c1 | -9%
CCOc1cccc(-c2nnc3sc(-c4cccs4)nn23)c1 | -13%
CCCCCCC1CC(=O)NC(=O)N1 (centres undefined) | -8%
COc1ccccc1NS(=O)(=O)c1ccc(/C=C/C(=O)O)cc1 | -8%
C[C@H](NC(=O)c1cc2cc(Cl)ccc2n1C)C(=O)N[C@@H](Cc1ccccc1)C(=O)O | -17%
O=C(c1n[nH]c2ccccc12)N1CCN(c2ccc(F)cc2)CC1 | 2%
Cc1nc(Sc2ccccc2)c(C#N)cc1-c1ccccc1 | -4%
Cn1c(=O)c2c(c3ccccc31)OC(=O)CC2c1cccc(Cl)c1 (centres undefined) | 17%
CC(C)Oc1ccc(C(=O)Nc2ccc(N3CCCC3)cc2)cc1 | -10%
C=C1CCN([C@@H](Cc2ccccc2)C(=O)NCc2ccc(Cl)cc2)S(=O)(=O)c2ccccc21 | -18%
O=C(c1nsc(Cl)c1Cl)N1CCCCC1 | 1%
C/C(=N\NC(=S)NCCc1ccccc1)c1ccc(C#N)cc1 | 5%

An excerpt of these results, field by field.
> CCOc1cccc(-c2nnc3sc(-c4cccs4)nn23)c1
  VDR inhibitor = -13%
> CCCCCCC1CC(=O)NC(=O)N1 (centres undefined)
  VDR inhibitor = -8%
> COc1ccccc1NS(=O)(=O)c1ccc(/C=C/C(=O)O)cc1
  VDR inhibitor = -8%
> C[C@H](NC(=O)c1cc2cc(Cl)ccc2n1C)C(=O)N[C@@H](Cc1ccccc1)C(=O)O
  VDR inhibitor = -17%

New compounds follow.
mol | VDR inhibitor
COc1ccc(-c2ccc(OC)cc2)cc1 | -2%
CN(CCOc1ccccc1)C(=O)c1ccc(N2CCCC2)c([N+](=O)[O-])c1 | -6%
CC(Oc1ccc(NC(=O)c2ccco2)cc1)C(=O)N1c2ccccc2CC1C (centres undefined) | 0%
Cc1cccc(C)c1Nc1nc2ccccc2o1 | -8%
O=C(COc1ccc(S(=O)(=O)NCCc2ccccc2)cc1)N1CCCC1 | -26%
CC(=O)Nc1ccc(S(=O)(=O)N2CCN(S(=O)(=O)c3ccccc3)CC2)cc1 | -2%
Cc1ccc2c(c1)N(CC(=O)N1CCCCC1)C(=O)CO2 | ?
Cc1onc(C(=O)N2CCN(c3ccccc3)CC2)c1[N+](=O)[O-] | -21%
COc1ccc(-c2noc(CSc3nnc(Cc4ccccc4)n3-c3cccc(C)c3)n2)cc1 | 8%
Cc1cc(C(=O)N2CCCC(C(=O)c3cccc(C(F)(F)F)c3)C2)n[nH]1 (centres undefined) | 6%
Cc1ccc(CC(=O)Nc2ccc(C(=O)N3CCOCC3)cc2)cc1 | -16%
COc1ccc(CC(=O)NNS(=O)(=O)c2ccc([N+](=O)[O-])cc2)cc1OC | -2%

Single values from the list.
`N#C/C(=C\c1ccccc1)C(=O)Nc1ccccn1` in VDR inhibitor: -6%
`CC1(C)CC(=O)C=C(NCCO)C1` in VDR inhibitor: -1%

Continued.
mol | VDR inhibitor
COC(=O)c1ccc(OC)c(Cn2c(=O)n(-c3cccc(Cl)c3)c(=O)c3c2c2cc(C)ccc2n3C)c1 | -7%
CC(=O)c1c(C)oc2ccc(N(C(C)=O)S(=O)(=O)c3ccc(F)cc3C)cc12 | 3%
O=C(c1ccc2c(c1)OCO2)N1CCN(S(=O)(=O)c2ccc(Cl)cc2)CC1 | 4%
Cc1ccc(S(=O)(=O)N2CCN(c3nc(-c4cccs4)nc4c3ncn4COC(=O)C(C)(C)C)CC2)cc1 | -11%
COc1ccccc1CC(=O)Nc1ccc(C(=O)N2CCCCC2)cc1 | -25%
S=C1NC2(CCCCC2)N=C1c1ccccc1 | 0%
CC1CCCN(C(=O)C2CCN(C(=O)Nc3ccccc3)CC2)C1 (centres undefined) | 0%
CC(C)(C)OC(=O)COc1cc(O)c2c(=O)cc(-c3ccccc3)oc2c1 | 13%
CCOC(=O)c1c(NC(=O)c2cc3ccccc3c(=O)o2)sc2c1CCC(C(C)(C)C)C2 (centres undefined) | -12%
CCOc1ccc(N(CC(=O)NCCc2ccc(F)cc2)S(=O)(=O)c2ccccc2)cc1 | -12%
NC(=O)NNc1ncc(C(F)(F)F)cc1Cl | -7%
O=C(CSc1nc2c(c(=O)n1-c1ccc(F)cc1)SCC2)N1CCCC1 | 21%
O=C(Nc1c2ccccc2nc2ccccc12)C(Cl)(Cl)Cl | 7%
CC1Cc2ccccc2N1C(=O)CSc1nnnn1C (centres undefined) | 14%

Screening data as filed in PubChem.

An excerpt; count on the stated rates, not on these rows.
